Source: PubChem BioAssay (National Center for Advancing Translational Sciences (NCATS))
VDR inh: blocks the human vitamin D receptor | P11473 | VDR-SRC2-3 peptide fluorescence polarization, 2 h | Potency, µM, for the others: max response, negative = inhibition, actives largely listed as inhibitors | 0.93% of 400,000 active; active means well fitted inhibition curve with a large enough effect; inconclusive means small, poorly fitted or top-dose-only effect, or another doubt; inactive means no such curve, though single readings can be large or run the other way; further: series mostly up to about 120 µM
Target sequence (P11473 whole entry, looked up): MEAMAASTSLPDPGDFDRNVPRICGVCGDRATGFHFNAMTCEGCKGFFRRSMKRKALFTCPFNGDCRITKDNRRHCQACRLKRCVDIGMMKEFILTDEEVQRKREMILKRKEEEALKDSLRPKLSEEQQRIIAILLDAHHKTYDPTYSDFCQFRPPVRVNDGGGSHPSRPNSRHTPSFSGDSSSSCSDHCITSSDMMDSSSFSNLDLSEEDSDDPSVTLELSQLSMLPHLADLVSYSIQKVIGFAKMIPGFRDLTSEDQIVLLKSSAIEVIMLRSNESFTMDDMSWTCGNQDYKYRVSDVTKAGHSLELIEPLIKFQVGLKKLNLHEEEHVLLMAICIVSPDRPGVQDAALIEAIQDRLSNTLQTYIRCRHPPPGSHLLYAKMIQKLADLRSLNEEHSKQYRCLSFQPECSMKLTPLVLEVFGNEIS
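Two reagent solutions held at 4 deg C in the dark were dispensed, compounds pinned at 23 nl, and the mixture incubated 2 h at room temperature. Read-out: fluorescence polarization of VDR–SRC2-3 peptide binding.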
Active calls of the source: *; ? = inconclusive. On the % scale 0 is the no-effect control and ±100 the full control effect; potency means the concentration at half of the fitted maximal effect.

VDR inh | mol
-8% | O=C(NCc1ccccn1)C(=O)NCC1OCCN1C(=O)c1ccc(Cl)cc1 (configuration not stated)
8% | COc1ccc(/C=N/Nc2ccccc2)cc1Cn1nc(C)c([N+](=O)[O-])c1C
15% | CCOC(=O)Cc1csc(NS(=O)(=O)c2ccccc2)n1
7% | CC(=O)Nc1ccc(NS(=O)(=O)c2cc(-c3n[nH]c(=O)c4ccccc34)ccc2C)cc1
-3% | CC(NC(=O)c1ccccc1)C(=O)OCC(=O)N1c2ccccc2Sc2ccccc21 (configuration not stated)
? | O=C(O)c1cccc(N/N=C(\N=Nc2ccccc2)c2ccccc2)c1
8% | COCCCNCCOc1ccc(C(C)(C)c2ccccc2)cc1
2% | Cc1ccc(/C=C/C(=O)NC(=S)Nc2ccccc2C(=O)NC2CCCCC2)cc1
2% | O=C(CSCc1ccccc1Cl)Nc1c[nH]c(=O)[nH]c1=O
2% | COc1ccc(CNS(=O)(=O)c2ccc(N3CCCCS3(=O)=O)cc2)cc1
-9% | CCN(C(=O)c1c(OC)cccc1OC)c1nnc(-c2cccnc2)s1
5.6µM* | O=C1C(SCCO)=C(SCCO)C(=O)c2ccccc21
-25% | CCCCOc1ccc(/C=C(\C#N)C(=O)NC2CC2)cc1
-6% | Cc1ccc(C(NC(=O)N2CCOCC2)C(Cl)(Cl)Cl)cc1F (configuration not stated)
2% | CC(=O)N1CCOc2cc(S(=O)(=O)NCc3ccccc3Cl)c(C)cc21

More records follow.
VDR inh | mol
13% | O=C(CN1c2ccccc2S(=O)(=O)c2ccccc21)Nc1cccc(C(F)(F)F)c1
-10% | COc1c2ccoc2nc2c(OC)c(O)ccc12
2% | CC(Oc1ccc2c3c(c(=O)oc2c1)CCCC3)C(=O)NCCN1CCOCC1 (configuration not stated)
? | CCOC(=O)c1cn(CC)c2ccc(S(=O)(=O)N3CC(C)CC(C)C3)cc2c1=O (configuration not stated)
-14% | Cc1ccc(NC(=O)c2cccc(OC(F)F)c2)c(OC(F)F)c1
-7% | CCOc1ccc(/C=N/OCC(=O)Nc2ccc(OCc3ccccc3)cc2)cc1OC
-7% | CCc1ccc(N(CC(=O)N2CCCCCC2)S(C)(=O)=O)cc1
-1% | CC(C)N1C(=O)C(O)(C2COC(C)(C)CC2=O)c2ccccc21 (configuration not stated)
2% | CCOC(=O)N1CCN(C(=O)CSc2nc(CC)nc3c2c(=O)n(C)c(=O)n3C)CC1
9% | COc1ccc(CCNC(=O)CSc2ncc(C(=O)Nc3ccccc3)c(=O)n2C)cc1
-1% | COc1ccc(C(NC(=O)CC(C)C)NC(=O)CC(C)C)cc1OC
4% | Clc1cccc(CNCCCSc2nnnn2-c2ccccc2)c1
-19% | O=C(Nc1ccc(SC(F)F)cc1)c1ccc(F)cc1
-11% | CCCN(CC(=O)Nc1ccc(Cl)cc1Cl)C(=O)/C=C/c1cc(OC)ccc1OC
-2% | O=c1c2c(nc3c(-c4ccccc4)c[nH]n13)CCC2

The results go on:
VDR inh | mol
7% | CC(=O)c1ccc(OC(=O)COc2ccccc2)cc1
10% | O=C(Cn1nc(-c2ccc(Cl)cc2)ccc1=O)NCC1COCCO1 (configuration not stated)
-11% | CCOC(=O)N1CCN(C(=O)C2CCN(Cc3nc(-c4ccccc4C)oc3C)CC2)CC1
15% | COc1ccc(C(F)(F)F)cc1N/C=C\c1nnnn1-c1ccccc1
-12% | CCc1ccc(Nc2nnc(SCC(=O)N(C)CC(=O)Nc3ccccc3CC)s2)cc1
45µM* | CN(Cc1ccco1)c1cc(-c2ccccc2Cl)ncn1
-32% | O=C(O)Cc1c(-c2ccccc2)c2cc(Br)ccc2[nH]c1=O
-10% | O=C(CN(C(=O)c1csnn1)c1ccccc1Cl)NC1CCCC1
-3% | Cc1ccnc(NS(=O)(=O)c2ccc(NC(=O)C34CC5CC(C)(CC(C)(C5)C3)C4)cc2)n1
-8% | COc1ccc(N2CCN(C(=O)NC(=O)c3ccccc3)CC2)cc1
7% | CN1C(C(=O)Nc2ccc(OC(F)(F)F)cc2)=CC(c2ccco2)=NS1(=O)=O
19% | CCOC(=O)c1cn2nc(Oc3cccc(C(F)(F)F)c3)ccc2n1
4% | COc1cc(Cl)c(C)cc1NC(=O)c1cc(S(=O)(=O)N2CCCC2)ccc1F
-13% | Cc1cnc(NC(=O)Cc2ccc(S(=O)(=O)N3CCOCC3)s2)s1
6% | Cc1ccc(C(=O)OCc2ccc3c(c2)OCO3)cc1S(=O)(=O)N1CCCCC1

Next section
VDR inh | mol
4% | Cc1cc(C)cc(NC(=O)CSc2nc3nc(C)cc(C)c3c(=O)[nH]2)c1
16% | COc1ccc(/C=N/NC(=O)c2cc3cc(OC)c(OC)cc3[nH]2)cc1
3% | COc1ccc(CCn2nnnc2C(C(C)C)N2CCN(c3ncccn3)CC2)cc1OC (configuration not stated)
-16% | CC(NC(=O)OCc1ccccc1)C(=O)NCC(=O)NC(Cc1ccc(OC(C)(C)C)cc1)C(=O)OC(C)(C)C (configuration not stated)
2% | O=C(CCN1CCCCC1)NCC1OCCc2ccccc21 (configuration not stated)
-15% | COc1ccc(OC)c(-n2c(SC)nnc2-c2c[nH]c3ccccc23)c1
-19% | CC(C)NC(=O)Cn1cc(C(=O)C(=O)N2CCOCC2)c2ccccc21
1% | O=C(CS(=O)(=O)c1cn(CC(=O)N2CCOCC2)c2ccccc12)NCc1ccc(F)cc1
-6% | CCOC(=O)N1CCc2c(sc3c2c(=O)n(CCc2ccccc2)c(=O)n3Cc2ccc(F)cc2)C1
-4% | Cc1cc(C)c2nc(Nc3nc(CSc4nc5ccccc5[nH]4)cc(=O)[nH]3)nc(C)c2c1
20% | C=CCNC(=O)NC(=O)CN1C(=O)NC(c2ccccc2)(c2ccccc2)C1=O
-2% | O=c1c(O)c(-c2cccs2)oc2ccc(Cl)cc12
-2% | CCCN1CCN(C(=S)Nc2ccc([N+](=O)[O-])cc2)CC1
-3% | COc1ccc(CN2C(=NC(=O)C3CCCCC3)SC3CS(=O)(=O)CC32)cc1 (configuration not stated)
-4% | COc1cc(/C=C2/SC(=O)NC2=O)ccc1OC(=O)c1ccco1

6 compounds out of the list above, arranged by the value under VDR inh, highest first:
VDR inh | mol
8% | COc1ccc(/C=N/Nc2ccccc2)cc1Cn1nc(C)c([N+](=O)[O-])c1C
2% | CC(=O)N1CCOc2cc(S(=O)(=O)NCc3ccccc3Cl)c(C)cc21
-4% | Cc1cc(C)c2nc(Nc3nc(CSc4nc5ccccc5[nH]4)cc(=O)[nH]3)nc(C)c2c1
-6% | CCOC(=O)N1CCc2c(sc3c2c(=O)n(CCc2ccccc2)c(=O)n3Cc2ccc(F)cc2)C1
-11% | CCOC(=O)N1CCN(C(=O)C2CCN(Cc3nc(-c4ccccc4C)oc3C)CC2)CC1
-14% | Cc1ccc(NC(=O)c2cccc(OC(F)F)c2)c(OC(F)F)c1

More entries follow.
VDR inh | mol
1% | Cc1c(Cl)c([N+](=O)[O-])nn1CC(=O)NC12CC3CC(CC(C3)C1)C2
-6% | CCN1C[C@@H]2[C@@H]3C(=O)N(Cc4ccccc4)C(=O)[C@@H]3[C@](CC)(C1=O)N2C(=O)c1ccc(C(F)(F)F)cc1
5% | Fc1ccc(COc2cccc3cccnc23)cc1
-20% | COCCN1C(=O)C(CC(=O)Nc2ccc(C(=O)O)cc2)SC1=Nc1ccccc1 (configuration not stated)
-13% | NNC(=O)c1cc2c(N3CCC(Cc4ccccc4)CC3)ncnc2s1
-21% | CCN1C(=NCCCOC(C)C)N[C@@H](CCc2ccccc2)[C@H](C(=O)NCCCOC(C)C)[C@H]1C
0% | Cc1cc(C)c(NC(=O)c2sc3nc4c(cc3c2N)C(=O)CC(C)(C)C4)c(C)c1
-11% | COc1cc(/C=N/NC(=O)c2ccncc2)ccc1OCC(=O)Nc1ccc(C)c(C)c1
-12% | O=C(Nn1c(=O)[nH]c2ccsc2c1=O)c1ccccc1
-1% | Cc1ccc(CN2CCN(C(=O)CCN3C(=O)c4ccccc4C3=O)CC2)cc1
-8% | C=CCNc1ncnc2c1[nH]c1ccc(Cl)cc12
? | COC(C(=O)C(O)C(C)O)C1Cc2cc3cc(OC4CC(OC5CC(O)C(O)C(C)O5)C(O)C(C)O4)c(C)c(O)c3c(O)c2C(=O)C1OC1CC(OC2CC(OC3CC(C)(O)C(O)C(C)O3)C(O)C(C)O2)C(O)C(C)O1 (configuration not stated)
0% | COc1ccc(-n2c(O)c(/C=N/Nc3nc(C)cc(C)n3)c3ccccc3c2=O)cc1OC
11% | CC(C)=CCN1CCN(Cc2cnc(N3CCCC3)s2)CC1CCO (configuration not stated)
-14% | Cc1cc(Cl)ccc1OCC(=O)NN1C(=O)C2C3C=CC(C3)C2C1=O (configuration not stated)

The list continues:
VDR inh | mol
-15% | CCc1ccc(-n2cc(-c3ccc([N+](=O)[O-])cc3)[nH]c2=S)cc1
-8% | CC(=O)Nc1ccc(NC(=O)COC(=O)Cc2c[nH]c3ccccc23)cc1
6% | COc1ccc(S(=O)(=O)Nc2cccc(Cl)c2)cc1OC
-10% | CCOC(=O)[C@H]1[C@H]2COc3ccc(Cl)cc3[C@@H]2N2C(=O)c3ccc(Cl)cc3NC(=O)[C@@]12C
7% | COc1ccc(C(=O)COC(=O)c2ccc3c(c2)OCO3)c(OC)c1
3% | O=C(CN1C(=O)S/C(=C/c2ccccn2)C1=O)N1CCOCC1
-17% | COC(=O)c1ccccc1S(=O)(=O)N1CCC(C(=O)OCc2cccc(OC)c2OC)CC1
-11% | CCCc1cc(-c2n[nH]c(=S)n2CC)cs1
7% | O=C(N/N=C/c1ccccn1)c1cccc(NC(=O)c2ccc(Cl)cc2)c1
-5% | O=C(/C=C/c1ccc(Br)cc1)N1CCN(Cc2ccccc2)CC1
23% | CCOc1ccc2[nH]c(=O)c(CN(CCO)C(=O)c3ccc(Br)cc3)cc2c1
4% | O=C(Nc1ccc(SC(F)F)cc1)c1ccc2c(=O)n3c(nc2c1)CCC3
0% | Cc1ccc(C(=O)N(c2ccc(C)cc2)S(=O)(=O)c2ccc(Cl)cc2)cc1
17% | CCN(CC(=O)Nc1ccc2c(c1)OCCO2)C(=O)/C=C/c1ccc([N+](=O)[O-])cc1
8% | CN(C)c1ccc(C2Nc3ccccc3C(=O)N2NS(=O)(=O)c2ccccc2)cc1 (configuration not stated)

Next section
VDR inh | mol
10% | Cc1ccccc1C(=O)Nc1nnc(S(=O)(=O)N(C)c2ccc(Cl)cc2)s1
7% | CCCCCCCNC(=O)C1(CC2CC(c3cccc(Br)c3)=NO2)CCN(C(=O)CCCCCBr)CC1 (configuration not stated)
-10% | CCn1c(=O)c([N+](=O)[O-])c(NCC(O)c2ccccc2)c2ccccc21 (configuration not stated)
-7% | CCN(CC)CCn1c2c(c(SCC(=O)Nc3ccc(C)c(F)c3)nc1=O)CCC2
-8% | COc1ccccc1NC(=O)c1c(N=Cc2c(O)ccc3ccccc23)cnn1C
? | CCOC(=O)c1c(NC(=O)c2cc(-c3ccc(OC)c(OC)c3)on2)sc2c1CCCC2
2% | CC1CCCCC1NC(=O)COCc1cc(-c2cccs2)on1 (configuration not stated)
7% | Cc1nc(NC(C)C(=O)O)c2nc(C)oc2n1 (configuration not stated)
8% | O=C(CCCCCN1C(=O)c2cccc3cccc(c23)C1=O)NO
15% | O=C(COC(=O)c1ccco1)Nc1cccc(Br)c1
-4% | Cc1nonc1OCCN1CCN(c2ccc([N+](=O)[O-])cc2)CC1
10% | CCCN=C1N(CC)C[C@@H]2[C@@H]3C(=O)N(Cc4ccccc4)C(=O)[C@@H]3[C@](C)(C(=O)OC)N12
-6% | COCCN1C=C(C(=O)OC)C(c2cc(Br)c(OC)c(OC)c2)C(C(=O)OC)=C1
10% | CNC(=O)CC1C(=O)N(c2ccc(F)cc2)C(=S)N1NC(=O)c1ccc(Br)cc1 (configuration not stated)
-8% | CCOC(=O)c1ccc(NCc2ccc3c(c2)OCO3)cc1

More compounds:
VDR inh | mol
18% | O=C(O)C(CO)N=Cc1c(O)c2ccccc2oc1=O (configuration not stated)
2% | Cc1ccc(C(=O)COC(=O)CCC(=O)NC2CCCCC2)cc1[N+](=O)[O-]
-8% | CCCCCOc1ccc(/C=C/c2c([N+](=O)[O-])c(=O)n(C)c(=O)n2C)cc1
-4% | O=C(CC1C[C@H](C(=O)N2CCOCC2)[C@@]2(CCC3CCCC3)c3[nH]c4ccccc4c3CCN2C1=O)NCc1cccc(C(F)(F)F)c1 (some centres not stated)
-1% | COc1ccc(CNC(=O)c2c(Nc3ccccc3C)sc(C(=O)c3ccccc3)c2N)cc1
4% | O=C(NCCc1ccc(Cl)cc1)C(=O)NCC(c1cccs1)S(=O)(=O)c1ccccc1 (configuration not stated)
-13% | O=c1[nH]c(SCc2ccc([N+](=O)[O-])cc2)nc2[nH]ncc12
? | O=C(c1ccco1)N1CCCN(C(=O)c2ccco2)CC1
1% | O=C(CN1CCN(Cc2ccccc2F)C1=O)NCc1ccco1
-10% | Cc1cnc(NC(=O)c2ccc(OCC3CCCO3)cc2)s1 (configuration not stated)
-4% | Cc1ccc2ncccc2c1[N+](=O)[O-]
0% | Cc1cccc(NC(=O)Cn2nc(C(F)(F)F)cc2C2CC2)c1
-18% | CCOc1ccc(CNc2nnnn2C)cc1OC
? | Cc1ccc(NC2CCCN(C(=O)c3ccc(F)cc3)C2)cc1C (configuration not stated)
16% | COc1ccc(NS(=O)(=O)c2cccc(C(=O)N/N=C/c3c(F)c(F)c(F)c(F)c3F)c2)cc1
-5% | O=S(=O)(c1ccc(Cl)cc1)N1CCCC1c1nc2ccccc2s1 (configuration not stated)
-20% | Cc1ccc(CNC(=O)Cn2ccc(NC(=O)OCc3ccccc3)nc2=O)o1

Reformatted with each value named: four of the compounds above
> O=C(NCCc1ccc(Cl)cc1)C(=O)NCC(c1cccs1)S(=O)(=O)c1ccccc1 (configuration not stated)
  VDR inh: 4%
> O=c1[nH]c(SCc2ccc([N+](=O)[O-])cc2)nc2[nH]ncc12
  VDR inh: -13%
> O=C(c1ccco1)N1CCCN(C(=O)c2ccco2)CC1
  VDR inh: ?
> O=C(CN1CCN(Cc2ccccc2F)C1=O)NCc1ccco1
  VDR inh: 1%

The list is partial. The share of hits here may be higher or lower than overall.
